nsP2pro inh – Primary qHTS for inhibitors of NSP2Pro chikungunya virus (CHIKV); Polyprotein P1234 (Chikungunya virus (strain S27-African prototype)), Q8JUX6; FRET peptide cleavage, nsP2pro, fluorescence 1 h; AID 1964107, 2024; 1.1% of 31,000 active; Potency, µM (top dose mostly 24.9 µM), without a hit: top-dose activity change, negative = inhibition, usual class: inhibitors; active means well fitted inhibition curve with a large enough effect; inconclusive means small, poorly fitted or top-dose-only effect; inactive means no such curve, though single readings can be large or run the other way; further: nearly all actives have a fitted effect of over 60% in size; a reference inhibitor and vehicle were the controls
* = called active by the depositor; i = inactive; ? = inconclusive; & = joins results of further samples; [ ] = dose if it differs, or a comment. On the % scale 0 is the no-effect control and ±100 the full control effect; potency means the concentration at half of the fitted maximal effect.

Molecule,nsP2pro inh
CCC[C@H]1CN(Cc2c(C)noc2C)C[C@@H]1NC(=O)C1CCOCC1,i
COc1ccc(CCC(=O)N2CCCC(c3nc(-c4ccccc4)no3)CCNC(=O)CC2)cc1 (stereo unspecified),0%
OC[C@H]1O[C@@H](Oc2c(O)cc(O)cc2/C=C/c2ccc(O)cc2)[C@H](O)[C@@H](O)[C@@H]1O,12%
CCc1ccccc1NC(=O)c1cc2c(N3CCSCC3)nc(C)cn2n1,-5%
COc1ccccc1NC(=O)c1ccc2c(Cl)c3c(nc2c1)CCCC3,-13%
Cc1ccc(Cl)cc1N1CCN(C(=O)c2ccc3nc(N4CCC(C)CC4)sc3c2)CC1,-10%
CNc1ncnc2c1ncn2[C@@H]1O[C@H](CO)[C@@H](O)[C@H]1O,-11%
CS(=O)(=O)c1ncc(N(Cc2ccco2)Cc2cccs2)c(C(=O)Nc2ccccc2F)n1,-10%
O=C(COc1cccc(Cl)c1)N1CCC(c2nc3ccccc3o2)CC1,-12%
C=C1CC23CC1CCC2C12OC(=O)C(C)(C(O)CC1O)C2C3C(=O)O (stereo unspecified),?
CC(C)NC(=O)C1CCC(=O)N1C1CCNCC1 (stereo unspecified),21%
CCN1CC2(CCN(C(=O)c3cnc4c(O)cccn4c3=O)CC2)OC1=O,-10%
C[C@@H]1O[C@@H](O[C@H]2[C@H](O[C@H]3[C@H](O[C@H]4CC[C@@]5(C)C(CC[C@]6(C)C5CC=C5[C@@H]7CC(C)(C)CC[C@]7(C(=O)O[C@@H]7O[C@H](CO)[C@@H](O[C@@H]8O[C@@H](C)[C@H](O)[C@@H](O)[C@H]8O)[C@H](O)[C@H]7O)CC[C@]56C)C4(C)C)OC[C@H](O)[C@@H]3O)O[C@H](CO)[C@@H](O)[C@@H]2O)[C@H](O)[C@H](O)[C@H]1O (stereo partly specified),5%[5.1 µM]
CCOC(=O)C1CCN(C(=O)C2CCN(c3nnc(C)c4c(C)n(-c5ccccc5)nc34)CC2)CC1,-24%
C=CCc1ccccc1OCCn1c(C2CC(=O)N(Cc3ccc(F)cc3)C2)nc2ccccc21 (stereo unspecified),2%
CCOc1ccc(C(=O)Oc2ccc(-c3nc4ccccc4[nH]3)cc2)cc1[N+](=O)[O-],0%
COC(=O)C1=CO[C@@H](O)C2C(CO)=CCC12 (stereo partly specified),?
COc1ccc2cc(C(=O)N3C[C@@H](CO)[C@H](c4ccccn4)C3)[nH]c2c1,-3%
CCOc1ccc2nc(SCCN3CCOCC3)[nH]c2c1,-14%
C/C=C(\C)C(=O)OC1C[C@@]2(COC(C)=O)O[C@H]2/C=C\[C@@]2(C)O[C@@H]2[C@H]2OC(=O)C(COC(C)=O)=C12 (stereo partly specified),3.4µM*
O=C(COc1cccc(-c2nnc3n2CCCC3)c1)NCc1ccccc1,1%
O=C(NCC1CCOCC1)c1ccoc1,-8%
COc1cc(-c2nc(Nc3ccc(F)c(F)c3)c3ccccc3n2)c(F)cn1,3%
CC#CCC(C)[C@H](O)/C=C/[C@@H]1[C@H]2C/C(=C/CCCC(=O)O)C[C@H]2C[C@H]1O (stereo partly specified),-16%
O=C(Nc1ccc2c(c1)OCCO2)N1CC(c2nc(CCOCC3CC3)no2)C1,-10%
CC1=C2[C@H]3OC(=O)[C@@H](C)[C@@H]3CC[C@@]2(C)C=CC1=O,7%
CC1(C)CCC(C)(C)c2cc(C(=O)Nc3ccc(C(=O)O)cc3)ccc21,?
C[C@]1(CO)CN(c2cc(C(=O)Nc3ccc4c(c3)-c3c(c(C(N)=O)nn3-c3ccc(F)cc3)CC4)c(Cl)cn2)C[C@@]1(C)CO,35%[activator]
CCOc1ccc(CCNC(=O)c2cc3ccccc3o2)cc1OCC,-2%
Cc1cccc(-c2nc(SCCCOc3ccc(Cl)c(C)c3)n3[nH]c(=O)cc3n2)c1,-9%
Cc1ccc(OCCSc2nc3ccccc3n2CC(=O)N2CCOCC2)cc1C,?
Cc1cc2c(s1)c1cnn(Cc3ccc(Cl)cc3)c(=O)c1n2C,2%
CN(Cc1ccc(N2CCNC2=O)cc1)CC1CCCN(CCc2ccc(F)cc2)C1 (stereo unspecified),4%
CCOC(=O)c1cccc(NC(=O)c2ccc3c(Cl)c4c(nc3c2)CCC4)c1,-17%
O=C(c1cc(CN2CCOCC2)on1)N1CCc2c(nc3cc(-c4ccccc4)[nH]n3c2=O)C1,103%[activator]
Cc1ccc(/C=C/C(=O)Nc2cccc([S+](=O)([O-])Nc3ccccc3F)c2)cc1,i
Cc1ccccc1-c1nc(CS(=O)CC(=O)N2CCN(c3cc(Cl)ccc3C)CC2)c(C)o1 (stereo unspecified),-12%
Cc1ccc(S(=O)(=O)Nc2cc3c(cc2N2CCOCC2)n(C)c(=O)n3C)c(C)c1,-28%
CC(=O)O[C@H]1CC[C@]2(C)[C@H]3CC[C@]4(C)Oc5oc(C)cc(=O)c5C[C@H]4[C@]3(C)CC[C@H]2C1(C)C,-18%[10 µM]
CCOC(=O)c1c(C)[nH]c(C)c1S(=O)(=O)N1CCC(C(=O)Nc2cc(C)ccn2)CC1,-10%
CC(=O)Nc1sc2c(c1-c1cc3ccccc3[nH]1)CCNC2,2%
CCOC(=O)N1CCc2c(sc3c2c(=O)n(CCc2ccccc2)c(=O)n3Cc2cc(C)ccc2C)C1,-20%
O=C(COc1ccccc1)NCC1CCCCC(=O)N1 (stereo unspecified),-3%
O=C(CCCCN1CCOCC1)Nc1ccc(-c2cccnc2)cc1,-7%
CCc1ccc2c(c1)NC(c1cccs1)=NC(c1ccc(F)cc1)=N2,-24%
COCc1noc([C@@H]2CC(F)(F)CN2C(=O)Cc2cccc(F)c2)n1,-10%
COc1ccc(-c2cccc(C(=O)NC3CCOCC3)c2)nn1,i
O=C(c1ccc(F)cc1F)N1CCC(c2noc(-c3ccc(S(=O)(=O)N4CCCC4)cc3)n2)CC1,-10%
C=C1C2(C)CC3C4(C)C=CC(=O)OC(C)(C)C4CCC3(C)C1(C(=O)OC)C(=O)C(C)(O)C2=O (stereo unspecified),-9%[10 µM]
CN(Cc1cccs1)c1ncnc2ccc(-c3ccc4cn(C)nc4c3)cc12,i

The listing continues:
Molecule,nsP2pro inh
COC(=O)c1ccc(-c2c(NC(C)=O)sc3c2CCNC3)cc1,4%
Cn1ccnc1SCC(=O)Nc1cc(Cl)ccc1Cl,-30%
CCCCN(C)CCCNC(=O)CN1C(=O)COc2ccc(S(=O)(=O)N3CCC(C)CC3)cc21,-10%
COc1ccc(-c2ccc(=O)n(CC(=O)NCCc3ccccc3)n2)cc1,-10%&-6%
Cc1ccc(CN2CC(Oc3cccc(C(=O)N4CCOCC4)c3)C2)s1,-12%
CCc1noc([C@@H]2CC(F)(F)CN2C(=O)c2cc(C3CC3)[nH]n2)n1,i
O=C(NCCN1CCN(c2cccc3c2OCCO3)CC1)c1ccc(F)cc1,-9%
Cc1scc2c1C(=O)NS2(=O)=O,i
CCOC(=O)c1ccc(NC(=O)CN2C(=O)COc3ccc(Cl)cc32)cc1,-13%
COc1ccc(-n2c(SCCC(C)C)nc3sc4c(c3c2=O)CC(C(C)C)OC4)cc1 (stereo unspecified),-16%
COCCN(CCOC)C(=O)[C@@H](C)C1CC[C@@]2(C)CC[C@H](NC(=O)c3cncnc3)[C@@H](C)[C@@H]2[C@H]1O (stereo partly specified),i
COc1cc(OC)c2ccc(=O)oc2c1,16%
NC(=O)c1cccc(NC(=O)c2cccc(CN3CCNC(=O)C3)c2)c1,5%
Cc1nn(-c2ccccc2)c2c1C(C(C)C)N(C1CCCN(C(=O)c3ccccc3F)C1)C2=O (stereo unspecified),i
CCCn1c(C)nc2c(NCCN3CCCC3)nc(C)nc21,-1%
COc1ccc(Br)cc1CNC(=O)c1cc(=O)[nH]c2ccc(S(=O)(=O)N3CCCC3)cc12,-21%
C[C@@H]1O[C@@H](O[C@H]2[C@H](O[C@H]3CC[C@@]4(C)C(CC[C@]5(C)C4CC=C4C6CC(C)(C)CC[C@]6(C(=O)O[C@@H]6O[C@H](CO[C@@H]7O[C@H](CO)[C@@H](O[C@@H]8O[C@@H](C)[C@H](O)[C@@H](O)[C@H]8O)[C@H](O)[C@H]7O)[C@@H](O)[C@H](O)[C@H]6O)CC[C@]45C)[C@]3(C)CO)OC[C@H](O)[C@@H]2O)[C@H](O)[C@H](O)[C@H]1O (stereo partly specified),8%[5.1 µM]
O=S(=O)(NCc1nc2cccnc2n1Cc1ccccc1Cl)c1ccc2c(c1)CCCC2,3%
O[C@@H]1C[C@@H](c2nc(Cc3ccc(F)cc3Cl)no2)N(Cc2ccco2)C1,4%[39.2 µM]
O=C(/C=C/c1ccco1)Nc1ccc(Cl)c(-c2nc3cc(Cl)ccc3o2)c1,?

(continued)
mol	nsP2pro inh
CC(=O)O[C@]1(C(C)=O)CC[C@H]2[C@@H]3CCC4=CC(=O)CCC4=C3[C@@H](c3ccc(N(C)C)cc3)C[C@@]21C	-10%
C=C1C(=O)O[C@H]2/C=C(/C)[C@@H](OC(C)=O)C/C=C(\C)C[C@@H](OC(=O)/C(=C/C)COC(=O)/C(=C/C)CO)[C@@H]12	?
NCC(CC(=O)O)c1ccc(Cl)cc1 (stereo unspecified)	-15%[10 µM]
CCOC(=O)N1CCC(NC(=O)c2c(C)nn(-c3cccc(C)c3)c2-n2cccc2)CC1	-18%
COc1ccc(Br)cc1CNC(=O)C1COc2ccccc2C1 (stereo unspecified)	-30%
Cc1ccc(CN2CCC(CNC(=O)Nc3ccc(Cl)cc3)C2)cc1 (stereo unspecified)	2%
CS(=O)(=O)c1ccc([C@H](CC2CCCC2)C(=O)Nc2nccs2)cc1	33%
CC(=O)c1ccc(N2CCN(C(=O)C3CCN(S(=O)(=O)c4c(C)noc4/C=C/c4ccc(C)cc4)CC3)CC2)cc1	-7%
NC(=O)C1(N2CCCCC2)CCN(c2nccc(-c3ccncc3)n2)CC1	1%
O=[N+]([O-])c1ccc(CSc2nc3ncc(Br)cc3[nH]2)cc1	-10%
Cc1nc2ccc(Oc3ccc(F)cc3)cc2c(=O)n1C[C@H]1CCCN(C(C)C)C1	-14%
Cc1ccc(-c2nnn3c2nc(N2CCC(C)CC2)c2ccccc23)cc1	-18%
CCOC(=O)C(C)NC(=O)c1c(C)oc2ncn(CC(C)C)c(=O)c12 (stereo unspecified)	-7%
CCCCn1c(CCCNC(=O)c2cccc(C)c2)nc2ccccc21	-13%
CC(=O)OC(C)C[N+](C)(C)C (stereo unspecified)	-3%
Cc1ccccc1-c1noc(-c2cccnc2NCc2ccco2)n1	-28%
Cc1cc(-c2ncc(-c3cccnc3)cc2/C=C/c2ccccc2)cnc1-c1cccnc1	13%
Cc1ccc(C)c(C(=O)c2c(N)c(-c3nc(-c4ccc5c(c4)OCO5)cs3)c3ccccn23)c1	-13%
Cc1cccc(NC(=O)CCn2nc(C)c3c(C)n(-c4ccccc4)nc3c2=O)c1C	-21%
CN1CCN([C@H]2[C@@H]3OC[C@@H](O3)[C@@H](NCc3ccccn3)[C@@H]2O)CC1	i
COc1ccc(C2CC(=O)c3c([nH]c(C(=O)OC4CCCCCC4)c3C)C2)cc1 (stereo unspecified)	-16%
N/C(=N\c1nnc(-c2ccncc2)s1)Nc1ccc(F)c(C(F)(F)F)c1	5%
COC(=O)N1CCN(C(=O)Cc2ccc(Cl)c(Cl)c2)C(CN2CCCC2)C1 (stereo unspecified)	-19%
CN(C)CCNC(=O)c1nc2nc(-c3ccccc3)c(-c3cccnc3)cc2n1C	7%[39.2 µM]
Cc1nc(N2CCC(C(=O)NCCC3=CCCCC3)CC2)cc(C(F)(F)F)n1	i
CCN1C(=O)C2(CCN(S(=O)(=O)c3c(C)nn(C)c3C)CC2)c2ccccc21	i
CCC(=O)C1=C(c2ccccc2)N(C(=O)CC)n2c(nnc2-c2ccccc2)S1	-22%
Cc1noc(C)c1[S+](=O)([O-])N1CC(Oc2ccc(F)cc2F)C1	3%
COc1ccccc1NC(=O)CN1C(=O)CCSc2ccccc21	-17%
COc1cccc(C2=Nn3c(nnc3-c3cccc(OC)c3)SC2)c1	i
COc1ccc(-c2ccc3nc(-c4ccccc4Cl)oc3c2)c(OC)c1OC	26%
O=C1NS(=O)(=O)C(c2ccccc2)C1c1ccccc1 (stereo unspecified)	1%
OC(CCCN1CCCCC1)(c1ccccc1)c1ccccc1	3%

Assay outcomes: PubChem, National Center for Advancing Translational Sciences (NCATS)

These rows are one share of the data, so the mix of outcomes need not match the whole.
